LANA-H2B inh: blocks KSHV LANA binding to histone H2A/H2B | AID 2629 | 0.6% of 320,000 active | inhibition, % (test concentration not listed) | cell-free LANA-H2A/H2B peptide, fluorescence polarization; in the data active = inhibition mostly above about 10%, no sharp cut-off; inactive = mostly below about 6.7%;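 also: stock transfer was 7.5 nL into about 10 µL; 0% = median of vehicle wells and 100% = median of positive control wells; one replicate is shown; the record names a cut of 25% in any replicate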
Calb FLC: C. albicans growth modulation with fluconazole. C. albicans CaCi-2 (fluconazole-resistant clinical isolate) + fluconazole, Alamar Blue growth, 48 h. growth inhibition, % (no concentration beside the values). 0.57% of 300,000 active;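 active = most replicates above 75%; inconclusive = exactly half above 75%; inactive = most below 75%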;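 also: all wells also contain fluconazole at 8 µg/ml as a sub-toxic cotreatment; 0% = median of DMSO wells and 100% = median of geldanamycin control wells; wells of about 8 µL received 7.5 nL stock; the first replicate is given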
AF4-AF9 inh: MLL-AF4/AF9 protein interaction inhibition | P42568 | AlphaScreen, biotin-AF4 peptide binding to FLAG-AF9 | inhibition, % at 10 µM | 0.47% of 350,000 active;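 active = every replicate reaching a set inhibition limit, whatever the replicate mean, cut at about 25% in these data; inconclusive = mean inhibition reaches that limit but some replicates miss it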;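 also: 0% = plate neutral control median and 100% = total signal loss; the record names both 10 and 1 µM as test concentration; the first replicate is given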
Target sequence (P42568 whole entry, looked up): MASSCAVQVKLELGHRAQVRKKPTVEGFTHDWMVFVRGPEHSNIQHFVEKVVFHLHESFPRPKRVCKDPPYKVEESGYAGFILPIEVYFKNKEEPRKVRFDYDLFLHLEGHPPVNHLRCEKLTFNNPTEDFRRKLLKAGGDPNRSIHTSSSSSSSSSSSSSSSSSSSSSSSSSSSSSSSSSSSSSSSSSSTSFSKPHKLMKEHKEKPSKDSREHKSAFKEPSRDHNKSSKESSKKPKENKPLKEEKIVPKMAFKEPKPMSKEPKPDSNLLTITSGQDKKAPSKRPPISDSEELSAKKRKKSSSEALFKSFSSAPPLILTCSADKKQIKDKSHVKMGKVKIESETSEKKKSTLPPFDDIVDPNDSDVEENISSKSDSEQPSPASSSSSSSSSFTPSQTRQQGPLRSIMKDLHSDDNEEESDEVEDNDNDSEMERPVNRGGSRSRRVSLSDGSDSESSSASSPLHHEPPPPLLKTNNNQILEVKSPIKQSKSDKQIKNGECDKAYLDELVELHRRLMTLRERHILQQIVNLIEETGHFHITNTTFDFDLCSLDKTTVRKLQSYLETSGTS
T cruzi inh: T. cruzi replication inhibition. T. cruzi beta-gal in NIH3T3, luminescence, 90 h. inhibition, % (no concentration beside the values). 1.4% of 300,000 active;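 active = mean inhibition across valid replicates above about 55%, limit read from the data; inconclusive = mean below that limit but half or more replicates reach it; inactive = mean below it, under half of replicates reach it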;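 also: signal also drops with host cell toxicity which is not excluded here; 0% = plate median of DMSO wells and 100% = zero luminescence signal; higher percent means less beta-gal luminescence so fewer parasites; stock transfer was 50 nL into about 50 µL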
Beta cell apopt: blocks beta cell apoptosis; INS-1E cytokine-induced death, ATP luminescence, 48 h; percent of positive-control rescue, neutral wells zero; protection from apoptosis, % (no concentration beside the values); 0.8% of 300,000 active;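 active = all replicates at 75% or more, or half of them and the mean; inconclusive = half reach 75% but not the mean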;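 also: 0% = cytokine-treated negative control wells and 100% = positive control rescue; higher means more ATP so stronger rescue from cytokine killing; wells of about 40 µL received 100 nL stock; the first replicate is given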
Bfl-1 A1 inh: inhibitors of the anti-apoptotic protein A1, read as caspase activation; MEF A1-2A-BIM cells, Caspase-Glo 3/7 luminescence, 3 h; percent of clofoctol response, vehicle zero; caspase activation, % (concentration not given with the values); 0.066% of 330,000 active; AID 2462;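 active = over half of replicate activation scores above 10%, or exactly half above 10 with the replicate mean above 10; inconclusive = replicate mean below 10 yet half the replicates above 10; inactive = over half of replicates below 10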;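 also: wells of about 30 µL received 50 nL stock; many hits fall short of the cut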
RanGTP-Imp inh: disruptors of Ran-importin-beta complex formation – biochemical, FRET, CFP-Ran, YFP-importin-beta, homogeneous, primary screen; cell-free CFP-Ran/YFP-importin-beta FRET ratio; 1.1% of 300,000 active; inhibition, % (concentration not given with the values);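 active = most replicates above 15%; inconclusive = exactly half above 15%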;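 also: 0% = DMSO wells and 100% = Ran loaded with GDP instead of GTP; wells of about 40 µL received 100 nL stock; the first replicate is given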
Vif A3G: inhibitors of Vif binding to APOBEC3G peptide, primary screen, biochemical, TR-FRET, GST-Vif 1-94, biotin-A3G peptide, dose response retest (AID 1117319) | TR-FRET GST-Vif / biotin-A3G peptide binding; higher % means a stronger effect; test concentration not given here; strong numbers were not always called active | one-dose inhibition, %; IC50 in µM for titrated hits | 0.57% of 260,000 active;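 active = above the screen mean plus three standard deviations and confirmed in dose response; inconclusive = results disagree or hit not tested in dose response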;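 also: Vif residues 1-94 fused to GST binding biotinylated APOBEC3G peptide 110-148; 0% = full assay without inhibitor and 100% = GST in place of GST-Vif; retest series ran down from 100 µM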
Starred values were filed as active, the others as inactive; ? = inconclusive; . = not tested or not shown.

SMILES	LANA-H2B inh	Calb FLC	AF4-AF9 inh	T cruzi inh	Beta cell apopt	Bfl-1 A1 inh	RanGTP-Imp inh	Vif A3G
CCn1c(NCc2ccccn2)nc2c1c(=O)n(C)c(=O)n2C	-8.5	1	.	1	-1	1.0	-3.5	28%
Cc1ccc2c(CN3CCOCC3)cc(=O)oc2c1C	5.8	-4	-0.6	0	3	1.0	6.3	-3%
O=C(NC1CCCCC1)N(Cc1ccccc1)Cc1ccco1	-3.1	0	.	-2	-1	0.8	0.3	6%
COc1cccc(C(C(=O)NC(C)(C)C)N(CC(C)C)C(=O)CCC(=O)Nc2cc(C)on2)c1OC (stereo not drawn)	-1.4	18	6.3	32	0	-0.8	1.2	9%
O=C(NCC(c1cccs1)N1CCOCC1)c1cc2ccccc2o1 (stereo not drawn)	-1.1	-17	.	-9	4	0.0	4.8	23%
CCCCN(CCCC)S(=O)(=O)c1ccc2oc(C(=O)N3CCOCC3)c(C)c2c1	2.0	2	.	19	-2	?	2.6	-2%
CCN(C(=O)COC(=O)c1nc2nc(C)cc(C)n2n1)C1CCCCC1	-1.9	4	?	-8	-1	1.4	2.5	-3%
Cc1ccn2nc(C(=O)OCC(=O)N(CC(C)C)C3CCS(=O)(=O)C3)nc2n1 (stereo not drawn)	80*	.	-6.4	.	-2	-0.2	.	-11%
O=C(Nc1ccc2c(c1)OCCO2)c1cccc2nc3ccccc3nc12	1.6	52	.	65*	46	2.5	3.7	-7%
CCOC(=O)c1cc2c(ccn2-c2ccc(F)cc2)n1CC(=O)N(CC)CC	-5.8	33	9.0	8	5	0.6	-3.7	7%
CC(C)[C@H](NC(=O)C1CCN(C(=O)[C@@H]2CCCN2)CC1)C(=O)NCc1ccc(F)cc1	-1.4	-1	-1.0	-13	-2	0.2	-0.2	.
COc1ccc(Br)cc1CNC(=O)Cn1nc(C)n2cccc2c1=O	2.8	-7	-8.2	17	-1	0.2	1.9	.
CCNc1nnc(CCn2nc(C)c(Br)c2C)s1	5.4	-9	-9.8	-11	0	-0.1	0.1	-3%
Cc1c(C(=O)N2CCOCC2)oc2ccc(S(=O)(=O)N3CCCC3)cc12	2.1	-2	.	4	-2	-1.0	-2.0	3%
CCOc1ccc(NS(=O)(=O)c2ccc(OCC)c3ncccc23)cc1	1.2	9	.	-33	5	-1.0	-3.9	19%
Cc1ccc(OCCn2cnc3sc(C(N)=O)c(C)c3c2=O)cc1	2.4	0	-3.0	1	7	-0.3	-3.2	-9%
CCN(CC)CCCN1C(=O)C(O)=C(C(=O)c2ccco2)C1c1ccc(C)o1 (stereo not drawn)	-3.1	6	.	-5	-6	-0.1	-8.5	.
O=C1CCCC(O)=C1C=NCc1ccccc1	0.3	-3	-0.4	-14	-11	-0.5	-5.6	-2%
O=c1oc2ccccc2n1CCCOc1ccccc1	-1.8	0	-0.6	2	-3	0.3	1.9	5%
O=C(NNc1ccc([N+](=O)[O-])cc1)C12CC3CC(CC(C3)C1)C2	-1.3	-26	.	12	-4	0.9	-4.1	?
CNC(=O)C1=C(C)Nc2nc3ccccc3n2C1c1cccc(OC)c1 (stereo not drawn)	0.2	-1	?	-9	-1	0.8	6.0	2%
CCCCSc1ccc2nc(-c3ccc(C#N)cc3)cn2c1	0.8	-5	.	12	7	-0.6	1.3	-1%
COc1ccc(S(N)(=O)=O)cc1C(=O)NCC(C)(C)N1CCOCC1	-1.3	8	-0.5	2	-6	0.3	1.4	-11%
O=C(O)c1ccc(S(=O)(=O)N2CCOCC2)o1	3.2	6	-0.8	-14	-5	-0.5	3.7	.
O=C(COC(=O)c1cccnc1Cl)Nc1ccc(S(=O)(=O)N2CCOCC2)cc1	-1.7	.	-5.8	.	-2	-0.4	.	-6%
CCc1ccccc1NC(=O)CN(C)C(=O)CSc1nnc(Nc2ccc(C)cc2)s1	-4.6	0	4.5	0	-1	0.1	-3.4	8%
Cc1ccc(C2c3c(oc4ccc(Cl)cc4c3=O)C(=O)N2CCCN2CCOCC2)o1 (stereo not drawn)	2.7	-1	.	-13	-5	-0.3	-3.0	23%
NS(=O)(=O)c1cnccc1Oc1cccc(Cl)c1	1.3	-6	1.6	-10	.	-0.4	-1.0	.
O=C(c1ccccc1)c1coc2c1C(=O)c1ccccc1C2=O	3.0	-2	3.2	-11	67	-0.9	-1.1	16%
O=C(NCCN1CCOCC1)c1ccc(Cl)cc1[N+](=O)[O-]	-0.3	3	.	4	-9	0.5	-0.3	17%
CCC1CCCCN1CCNS(=O)(=O)c1ccc2c(c1)CCN2C(C)=O (stereo not drawn)	-1.8	2	.	-4	-2	0.6	-5.2	-3%
Cc1ccc(SCc2cc(=O)n(C)[nH]2)cc1	-1.6	1	-0.7	-6	3	-0.4	0.8	-6%
CN(CC(=O)Nc1ccccc1Br)C(=O)CCSc1ccc(F)cc1	1.1	1	-1.7	-8	5	0.4	2.2	-2%
Cc1nnc(N2C(=O)c3ccc(Br)cc3C2=O)s1	-4.1	33	-8.8	4	0	0.6	10	1%
COC(=O)c1ccccc1OCCOCCOc1cccc2ccc(C)nc12	-14	-5	-1.2	1	-5	1.2	2.5	12%
COc1cc(C(=O)NNC(=S)NCc2ccco2)cc(OC)c1OC	-0.4	22	-1.5	-12	2	0.2	2.3	63µM*
COCCCn1c(=O)c2ccccc2n(CC(=O)Nc2ccc3c(c2)OCCO3)c1=O	3.5	1	-2.3	19	1	1.0	1.1	.
O=C1C2CC=C(Cl)CC2C(=O)N1CCCCCCN1C(=O)C2CC=C(Cl)CC2C1=O (stereo not drawn)	2.1	-5	.	11	1	0.4	-9.9	?
CCCCOC(=O)c1ccc(NC(=O)c2c(Cl)ccc(Cl)c2OC)cc1	-3.6	51	.	50	3	0.5	1.4	.
COCCn1c(C)cc(C(=O)COC(=O)c2ccc(-n3nc(C)cc3C)cc2)c1C	3.2	33	.	11	1	1.0	6.1	1%
COc1ccc(C(=O)NC2CCCc3c2cnn3-c2cccc(C)c2C)c(OC)n1 (stereo not drawn)	5.8	-4	-0.7	0	32	-0.3	3.4	1%
CCn1ccnc1CNC(=O)CC1C(=O)NCCN1Cc1ccc(F)cc1Cl (stereo not drawn)	-2.9	0	5.7	44	-3	0.7	1.8	6%
O=C(CN1CCN(Cc2ccc3c(c2)OCO3)CC1)Nc1ccc2[nH]c(=O)[nH]c2c1	0.8	.	0.5	.	-1	0.4	.	-13%
Cc1cc(C)n(-c2ccc(C(=O)Nc3ccc(N4CCOCC4)cc3)cc2)n1	0.0	-3	.	2	5	0.3	-0.8	25%
Cc1cc2nccc(-c3ccccn3)n2n1	-1.4	4	-2.4	-11	-2	0.3	?	-3%
Cc1ccccc1C(=O)NN1CC(C(=O)OCc2ccc(Cl)c(Cl)c2)CC1=O (stereo not drawn)	-0.8	5	0.2	-4	4	-0.8	0.6	-3%
O=C(CSc1nnnn1-c1cccc2c1CCCC2)N1CCCC1	3.9	-4	.	-12	0	0.2	0.1	3%
Cc1ccc(C(=O)NC(NC(=O)c2ccc(C)cc2)C(Cl)Cl)cc1	1.0	-5	.	-6	15	-0.8	0.7	0%
CN(C)CCNC(=O)c1ccccc1	2.8	-5	.	12	1	0.8	0.8	-3%
COc1cc(CNC(=O)c2ccc(Cn3nc(C)c(Cl)c3C)o2)cc(OC)c1	-0.6	33	.	4	-19	-0.2	3.6	8%
COc1cc(C)c(S(=O)(=O)NCc2cccs2)cc1C	4.9	-1	.	-18	-9	-0.3	-2.2	2%
CCCCn1c(SCC(=O)c2ccc(O)cc2O)nc2cc(S(N)(=O)=O)ccc21	-1.3	21	-2.5	8	4	0.4	5.1	.
S=C(c1ccc(-c2cccc(Cl)c2)o1)N1CCOCC1	-1.8	-1	29*	-3	-2	-0.6	1.4	?
O=C(CN(C(=O)CNC(=O)c1ccco1)c1ccc(F)cc1)NC1CCCC1	3.7	-3	1.3	-5	-1	0.3	-3.0	-3%
O=C(Nc1ccc(N=Nc2ccccc2)cc1)c1cccc(Cl)c1	-6.1	-18	.	-23	2	-2.9	2.7	-2%
CCOc1ccc(C(=O)c2ccc(OCC)c(N)c2)cc1N	3.6	5	.	7	1	0.4	-1.5	1%
CN(CCOc1ccccc1)C(=O)C1CCN(C(=O)c2ccc(Cl)cc2)CC1	-2.3	1	-2.3	10	.	0.7	1.4	0%
CC(=O)Cn1cnc2c(cnn2-c2ccccc2)c1=O	7.9	2	-0.9	-9	1	0.6	1.1	.
COc1ccccc1N1CCN(S(=O)(=O)Cc2ccccc2Cl)CC1	-4.4	6	.	26	.	0.3	2.5	6%
O=C(c1ccc([N+](=O)[O-])cc1)c1cc2ccc(O)cc2oc1=O	0.2	4	0.7	-6	-2	-5.1	2.2	-3%

(further entries)
SMILES	LANA-H2B inh	Calb FLC	AF4-AF9 inh	T cruzi inh	Beta cell apopt	Bfl-1 A1 inh	RanGTP-Imp inh	Vif A3G
O=C(COC(=O)c1cc(Br)ccc1O)Nc1ccc2c(c1)OCO2	-2.8	.	-0.3	.	-2	1.3	.	1%
CCCC(NS(=O)(=O)c1ccc(OC)cc1)C(=O)O (stereo not drawn)	-2.5	-2	.	-11	-15	.	-0.7	-2%
CC(=O)Nc1ccc(NC(=O)CCc2nc3ccccc3c(=O)[nH]2)cc1	-1.2	0	-3.6	-9	-2	0.2	2.0	-14%
c1ccc2oc(-c3nn4c(Cn5cnc6ccccc65)nnc4s3)cc2c1	3.9	27	0.2	26	4	0.5	3.7	.
Cc1cc(C)nc(SCC(=O)NC(=O)c2ccccc2O)n1	-2.4	.	-0.4	.	0	-0.9	.	3%
CCN1CCc2c(C#N)c(N3CCCCC3)nc(NCc3ccccc3)c2C1	3.7	-32	.	21	-6	-0.6	1.1	25%
CCCCn1nc(C(=O)Nc2cc(S(=O)(=O)N(C)C)ccc2C)c2ccccc2c1=O	-1.6	-6	3.2	6	3	-0.6	-0.8	16%
O=C1c2ccsc2SCCN1Cc1c(F)cccc1Cl	5.0	16	-1.3	11	-10	0.5	2.1	-13%
O=C1CSC(c2cccc(F)c2)N1c1ccc(O)cc1 (stereo not drawn)	-4.0	31	.	-11	-8	0.2	-3.4	0%
Cc1cc(C)cc(-n2nnc(C(=O)NCc3ccc(Cl)cc3)c2N)c1	0.2	-15	.	29	-4	0.2	1.6	2%
O=C(COC(=O)Cc1ccc(Cl)c(Cl)c1)Nc1ccc2[nH]c(=O)[nH]c2c1	1.8	.	-2.0	-1	8	-5.0	-3.1	-3%
NC(=O)c1ccc(C2SCC(=O)N2CCc2ccccc2)cc1 (stereo not drawn)	-2.8	.	-2.4	.	-2	0.4	.	.
COC(=O)C1=C(C(=O)OC)[C@@H]2N(C)c3ccc(OC)cc3[C@@]23C[C@@H](C(=O)OC)N(C(=O)CC(C)C)C3=N1	0.0	-11	13	4	-1	0.5	-4.8	.
Cc1cc(C)nc(SC2CC(=O)N(c3ccc(Cl)cc3)C2=O)n1 (stereo not drawn)	0.8	-3	2.2	20	-7	1.0	-0.6	-3%
Cc1cccc(OCC(=O)Nc2ccc3c(c2)nc(CCN2CCN(c4ccccn4)CC2)n3C)c1	4.5	-2	1.9	12	11	-0.1	-0.5	1%
CCCCn1c(=O)[nH]c(=O)c2c1nc(-c1ccccc1F)n2Cc1ccccc1OC	9.6	-10	7.3	26	4	-0.7	3.3	-3%

Assay outcomes deposited in PubChem BioAssay by several laboratories.
